Source: PubChem BioAssay (several laboratories)
HNF4A DNA FP = change in binding of human HNF4 alpha to DNA. 360,000 compounds, 0.3% hits. activity change, % at 10 µM. HNF4a-FITC DNA binding, fluorescence polarization, 1 h. P41235; in the data active means activity change above about 30%, passing the limit was not always enough;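 further: controls were the assay level and a saturating level of protein; the project sought stronger binding though the title names inhibitors; some compounds called inactive have numbers as strong as hits; positive values seem to mean higher polarization but the record does not say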
MLL AF4-AF9 inh = blocks AF4 peptide binding to human AF9 | 350,000 compounds, 0.47% hits | inhibition, % at 10 µM | AlphaScreen, biotin-AF4 peptide binding to FLAG-AF9 | AID 651704;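 active means every replicate reaching a set inhibition limit, whatever the replicate mean, cut at about 25% in these data; inconclusive means mean inhibition reaches that limit but some replicates miss it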;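 further: 0% = plate neutral control median and 100% = total signal loss; the record names both 10 and 1 µM as test concentration; the first replicate is given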
Target sequence (P42568 whole entry, looked up): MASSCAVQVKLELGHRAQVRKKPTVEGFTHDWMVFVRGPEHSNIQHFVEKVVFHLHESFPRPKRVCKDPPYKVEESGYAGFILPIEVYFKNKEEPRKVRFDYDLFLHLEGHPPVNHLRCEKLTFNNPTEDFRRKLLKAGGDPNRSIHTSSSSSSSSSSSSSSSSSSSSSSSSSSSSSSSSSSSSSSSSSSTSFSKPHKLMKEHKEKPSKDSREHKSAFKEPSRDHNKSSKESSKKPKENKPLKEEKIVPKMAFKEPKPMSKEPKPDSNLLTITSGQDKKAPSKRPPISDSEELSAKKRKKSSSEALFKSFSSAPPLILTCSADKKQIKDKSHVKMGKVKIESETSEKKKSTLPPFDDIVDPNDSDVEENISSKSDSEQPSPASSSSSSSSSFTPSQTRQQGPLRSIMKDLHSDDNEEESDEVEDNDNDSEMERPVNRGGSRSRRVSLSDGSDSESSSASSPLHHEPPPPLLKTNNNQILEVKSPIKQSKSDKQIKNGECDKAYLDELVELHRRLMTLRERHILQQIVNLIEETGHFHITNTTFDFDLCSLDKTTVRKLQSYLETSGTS
FGF22 binding = shifts melting point of recombinant human FGF22; recombinant FGF22 thermal shift, SYPRO orange fluorescence; percent of sucrose octasulfate shift, DMSO zero; calls only at 9.99 µM; 340,000 compounds, 1.5% hits; AID 651658;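 active means melting point raised past a set limit in the mean and every replicate; inconclusive means no clear call; three in four hits are not shown here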
Target sequence (Q9HCT0 whole entry, looked up): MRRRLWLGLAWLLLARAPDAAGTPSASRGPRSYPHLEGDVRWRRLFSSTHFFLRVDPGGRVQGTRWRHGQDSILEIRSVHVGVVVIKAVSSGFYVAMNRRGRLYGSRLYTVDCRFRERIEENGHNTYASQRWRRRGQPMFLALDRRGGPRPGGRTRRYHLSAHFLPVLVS
ALR inh = inhibitors of human sulfhydryl oxidase ALR. 290,000 compounds, 3.8% hits. purified ALR, DTT oxidation, H2O2 HRP-luminol luminescence. inhibition, % (concentration not given with the values);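 active means mean and each replicate at 75% or more; inconclusive means only one of the two met; inactive means neither met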;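 further: stock transfer was 7.5 nL into about 7.5 µL; 0% = neutral wells and 100% = wells with inactivated enzyme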
Target sequence (P55789 whole entry, looked up): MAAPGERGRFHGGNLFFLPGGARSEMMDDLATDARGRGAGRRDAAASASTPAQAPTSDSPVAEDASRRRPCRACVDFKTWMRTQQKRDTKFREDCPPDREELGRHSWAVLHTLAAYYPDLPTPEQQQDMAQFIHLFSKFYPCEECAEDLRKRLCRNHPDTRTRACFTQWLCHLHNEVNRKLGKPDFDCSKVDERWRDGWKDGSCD
Ecoli rRNA inh = inhibitors of bacterial rRNA selective over humanized ribosomes; AID 720706; 350,000 compounds, 1.6% hits; E. coli WT GFP vs humanized-ribosome RFP mutants, fluorescence, 24 h; hits give low values; DMSO median 0, no signal -100; GFP signal change (wild-type ribosome), % (test concentration not listed);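 active means significant combined selectivity score with lowered wild-type GFP, culture density cut under 30%, mutant RFP and density less affected; inactive means any of these conditions unmet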; further: one replicate is shown; some compounds called inactive have numbers as strong as hits
E coli growth = E. coli growth inhibition | 330,000 compounds, 0.21% hits | AID 1053175 | Escherichia coli growth, OD600, 23 h; hits give low values | OD600 absorbance (concentration not given with the values);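 active means OD600 absorbance below the run mean of sample wells minus 3.6 SD, in any replicate, cut at about 0.56 in these data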;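 further: stock transfer was 300 nL into about 60 µL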
Vif A3G = inhibitors of Vif binding to APOBEC3G peptide, primary screen, biochemical, TR-FRET, GST-Vif 1-94, biotin-A3G peptide, dose response retest (AID 1117319). one-dose inhibition, %; IC50 in µM for titrated hits. TR-FRET GST-Vif / biotin-A3G peptide binding; higher % means a stronger effect; test concentration not given here; strong numbers were not always called active. 260,000 compounds, 0.57% hits;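 active means above the screen mean plus three standard deviations and confirmed in dose response; inconclusive means results disagree or hit not tested in dose response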;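 further: Vif residues 1-94 fused to GST binding biotinylated APOBEC3G peptide 110-148; 0% = full assay without inhibitor and 100% = GST in place of GST-Vif; retest series ran down from 100 µM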
Ecoli rRNA inh OD600 = second read-out of Ecoli rRNA inh, no call of its own (marks repeat the call); OD600 change, %; measured here: OD600 growth;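 optical density of the mix in the first replicate; 0 = DMSO median and -100 = no signal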
Ecoli rRNA inh RFP = recorded beside Ecoli rRNA inh, whose call it bears; RFP signal change, %; measured here: RFP humanized mutant strains;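 first replicate; 0 = DMSO median and -100 = no signal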
* hit, by the source's call; i = inactive; ? = inconclusive; . = not tested or not shown; & = joins results of further samples.

molecule	Ecoli rRNA inh RFP	Vif A3G	Ecoli rRNA inh OD600	MLL AF4-AF9 inh	ALR inh	HNF4A DNA FP	FGF22 binding	E coli growth	Ecoli rRNA inh
Cc1cc(C(=O)Cn2cnc3ccc(Cl)cc3c2=O)c(C)n1C1CC1	0.5	.	0	0.1	.	2.6	i	.	1
COc1ccc(N2CCN(S(=O)(=O)c3cccc(C(F)(F)F)c3)CC2)cc1	.	1%	.	.	-5	5.6	.	0.7	.
C[C@@H]1CCCCO[C@@H](CN(C)Cc2ccccc2)[C@@H](C)CN([C@H](C)CO)C(=O)c2cc(NC(=O)c3ccncc3)ccc2O1	-2.0	.	2	-2.7	.	.	i	.	4
Cc1c(NS(=O)(=O)c2cccc([N+](=O)[O-])c2)c(=O)n(-c2ccccc2)n1C	-3.1	-1%	14	-1.5	-18	-4.2	i	0.68	13
COc1ccc(NC(=O)NCCCCc2ccccc2)c(OC)c1	-1.2	-9%	0	-0.6	-7	-3.4	i	0.71	0
COc1ccc2oc(C(=O)OCC(=O)NC3(C#N)CCCC3)c(C)c2c1	-1.2	5%	-22	-2.5	.	3.1	i	0.71	-6
Cc1ccc(NCc2ccccc2O)cc1	.	5%	.	.	?	-13	.	0.63	.
CC(NC(=O)c1ccccc1Br)c1nnc(SCC(=O)NC2CCCCC2)n1C (stereo not drawn)	-0.7	.	-4	-1.5	7	-1.0	i	0.66	1
O=C(Cn1nnc2ccccc2c1=O)NCCc1ccc(F)cc1	.	-3%	.	.	0	.	.	0.71	.
COC(=O)c1cc(OC)c(OC)cc1NC(=O)c1ccc(C)o1	4.9	4%	4	-4.3	0	-1.2	i	0.76	8
CCCC(=O)N1CCC1(C)C(=O)NS(=O)(=O)c1ccc(C#N)cc1 (stereo not drawn)	2.0	.	10	-1.4	.	0.5	i	.	12
COc1ccc(N2CCN(C(C)C(=O)N(C)Cc3ccccc3)CC2)cc1 (stereo not drawn)	-0.9	.	-2	2.4	96*	0.4	i	0.63	-2
Cc1cc(C)c(C)c(S(=O)(=O)N2CCN(C(=O)CCc3nc4ccccc4c(=O)[nH]3)CC2)c1C	2.0	.	13	-1.8	-15	0.9	i	0.74	13
COc1ccc(C(=O)NCc2nnc(SCC(=O)N3CCc4ccccc43)n2CCc2ccccc2)cc1	-2.2	.	7	10	-11	-2.1	i	0.74	14
COc1ccc(C2=NN(C(=O)CSc3nnc(C)c(=O)n3N)C(c3ccco3)C2)cc1 (stereo not drawn)	8.4	7%	-4	7.3	-6	2.5	i	0.71	-4
COc1ccc(C(=O)NNC(=O)c2ccncc2)cc1	.	.	.	.	0	1.0	.	0.67	.
C[C@@H]1CN([C@@H](C)CO)C(=O)c2cc(-c3ccc(F)cc3)cnc2O[C@H]1CN(C)CC1CCCC1	-0.1	.	10	-8.1	.	.	i	.	8
COc1cccc(C(=O)NCCS(=O)(=O)N2CCc3ccccc3C2)c1	-1.2	-3%	-3	-1.7	-3	-1.3	i	0.68	-3
CN(CCNC(=O)c1ccc(CS(=O)(=O)c2c(Cl)cccc2Cl)o1)CCc1ccccc1	1.6	-4%	-10	8.4	2	5.7	i	0.69	-5
CCOc1ccc(/C=N/Nc2cc(=O)n(C)c(=O)n2C)cc1	0.7	.	-4	3.3	.	-1.6	i	.	-4
CCCNC(=O)c1cccc(Br)c1	-1.0	.	12	-1.3	-11	-0.1	i	0.67	9
Cc1csc2nc(CNC(=O)C3CC=CCC3C(=O)O)cn12 (stereo not drawn)	1.0	0%	3	-2.2	-7	-0.4	i	0.76	9
CC(O)CNc1nc2c(c(=O)n(C)c(=O)n2C)n1CCc1ccccc1 (stereo not drawn)	-0.4	-4%	10	.	29	-1.2	.	0.74	14
COC(=O)c1ccc(N2CCOCC2)c(NC(=O)Nc2cccc(OC)c2)c1	1.6	2%	-8	0.1	17	-1.1	i	0.73	-9
CSC1=C(C#N)C(c2ccccc2Cl)C(C(=O)c2cccs2)C(O)(C(F)(F)F)N1 (stereo not drawn)	.	.	.	.	-2	-3.6	.	0.61	.

molecule	Ecoli rRNA inh RFP	Vif A3G	Ecoli rRNA inh OD600	MLL AF4-AF9 inh	ALR inh	HNF4A DNA FP	FGF22 binding	E coli growth	Ecoli rRNA inh
Cc1cc2c(OCC(O)CNC(C)(C)C)cccc2[nH]1 (stereo not drawn)	.	11%	.	.	45	5.7	.	0.78	.
COc1ccc(CCn2c(=N)c(C(=O)N3CCN(C)CC3)cc3c(=O)n4ccccc4nc32)cc1	.	-1%&2%	.	.	-3	5.2	.	0.75	.
CCC(C(=O)Nc1cc(C(=O)O)ccc1C)c1ccccc1 (stereo not drawn)	0.8	66%	3	-1.8	.	1.7	i	0.68	2
COc1ccccc1CN1CC(C(=O)NC2CCCCC2)CC1=O (stereo not drawn)	.	-2%	.	.	1	-4.6	.	0.72	.
CCCn1c(SCC(=O)N2CC(=O)Nc3ccccc32)n[nH]c1=O	-1.1	-5%	13	?	-1	1.5	i	0.69	5
O=C(Cn1cnnn1)Nc1ccccc1Cc1ccccc1	.	0%	.	.	.	-5.3	.	0.68	.
CCC(=O)c1ccc(N2CCCCC2)c(F)c1	.	-11%	.	.	-10	3.6	.	0.68	.
CC(C)(C)OC(=O)NCc1ccc(CNC(=O)c2[nH]cnc2C(=O)NCC(=O)OCc2ccccc2)cc1	2.8	.	6	3.0	6	-2.6	i	0.7	13
Cc1ccc(C(=O)C2CCN(C(=S)NCC3CCCO3)CC2)cc1 (stereo not drawn)	-1.6	.	-10	-0.5	-4	-0.7	i	0.67	-15
Cc1csc(NC(=O)CSc2nnc(NC(=O)COc3ccc(Cl)cc3)s2)n1	3.0	-9%	7	-0.1	-8	2.3	i	0.65	3
Cc1cc(NC(=O)CSc2nnc(CNC(=O)c3ccc(F)cc3)o2)no1	0.3	2%	2	0.3	-7	2.4	i	0.73	6
Cc1ccccc1CSc1nc2ccccc2c(=O)[nH]1	.	3%	.	.	-6	0.3	.	0.7	.
O=C(NCCO)c1cc2c([nH]c3ccccc32)c(-c2ccccc2)n1	-8.5*	-2%	-15*	-4.9	0	-0.1	i	0.66	-28*
Cc1cc(C(=O)Nc2ccc3c(c2)C(=O)N(C)[C@@H]2CC[C@@H](CC(=O)NCc4ccc(-c5ccccc5)cc4)O[C@@H]2CO3)no1	1.8	.	-1	0.1	.	.	i	.	0
O=C(C[C@@H]1C=C[C@H](NC(=O)CN2CCOCC2)[C@H](CO)O1)NC1CCC1	1.4	.	10	-3.0	.	.	i	.	2
COc1ccccc1NC(=O)C(=O)NCc1ccccc1Cl	1.3	2%	5	0.5	-2	3.2	i	0.74	15
COc1ccc(C2=Nn3c(nnc3-c3ccccc3F)SC2)cc1OC1CCOC1 (stereo not drawn)	1.7	.	4	6.3	3	0.6	i	0.7	1
S=C(c1ccc2c(c1)OCO2)N1CCN(c2cccc(Cl)c2)CC1	-3.5	0%	-21	1.7	.	2.5	i	0.68	-8
O=C(Nc1ccccc1)[C@@H]1[C@@H](CO)[C@@H]2Cn3c(ccc(C4=CCCCC4)c3=O)[C@@H]2N1Cc1cocn1	1.4	.	-5	-6.3	.	.	i	.	-1
Cc1cc(Cl)c(C(=O)Nc2cccc(C(F)(F)F)c2)c(C)n1	2.0	.	-2	-2.4	1	3.1	i	0.68	-6
O=C(CCl)N(c1ccccc1)c1c[nH]c2ccccc12	.	2%	.	.	62	-0.7	.	0.71	.
CC1(C)CC(=O)C=C(c2ccc(I)cc2)C1	-14	.	-15	-2.5	-1	-1.3	i	0.66	-15
CC1CN(C(=O)COC(=O)/C=C/c2ccccc2)CC(C)O1 (stereo not drawn)	-5.0	2%	-1	-0.6	.	-5.7	i	.	-2
CC1Cc2cc(C3(O)C(=O)c4ccccc4C3=O)ccc2N1 (stereo not drawn)	.	?	.	.	64	3.1	.	0.65	.
COc1cccc(NC(=O)N(C)C[C@H]2Oc3cc(C#CC4(O)CCCC4)ccc3S(=O)(=O)N([C@@H](C)CO)C[C@H]2C)c1	-2.9	.	-11	-1.0	.	.	i	.	1

Reformatted: 3 of the compounds above.
Every second line gives: Ecoli rRNA inh RFP | Vif A3G | Ecoli rRNA inh OD600 | MLL AF4-AF9 inh | ALR inh | HNF4A DNA FP | FGF22 binding | E coli growth | Ecoli rRNA inh
O=C(NCCO)c1cc2c([nH]c3ccccc32)c(-c2ccccc2)n1
→ -8.5* | -2% | -15* | -4.9 | 0 | -0.1 | i | 0.66 | -28*
Cc1cc2c(OCC(O)CNC(C)(C)C)cccc2[nH]1 (stereo not drawn)
→ . | 11% | . | . | 45 | 5.7 | . | 0.78 | .
O=C(C[C@@H]1C=C[C@H](NC(=O)CN2CCOCC2)[C@H](CO)O1)NC1CCC1
→ 1.4 | . | 10 | -3.0 | . | . | i | . | 2

New compounds follow
molecule	Ecoli rRNA inh RFP	Vif A3G	Ecoli rRNA inh OD600	MLL AF4-AF9 inh	ALR inh	HNF4A DNA FP	FGF22 binding	E coli growth	Ecoli rRNA inh
Cc1nnc(SCC(=O)NC2CC2)n1CCc1ccccc1	.	2%	.	.	10	-2.9	.	0.71	.
COc1ccc(Nc2nc(NCc3ccco3)nc(N)c2[N+](=O)[O-])cc1	-3.1	.	4	1.2	2	1.6	i	.	-3
Cc1cc(=O)[nH]c2c1c(C)nn2C1CCCCC1	-0.9	10%	2	-6.1	-4	-2.5	i	0.65	0
Cc1ccc(S(=O)(=O)N(C)C[C@H]2Oc3c(NC(=O)Nc4ccc(F)cc4)cccc3C(=O)N([C@@H](C)CO)C[C@H]2C)cc1	-2.1	.	0	2.6	.	.	i	.	-2
CCN1C(=NCC2CC2)N[C@@H](c2ccccc2)C(C(=O)OC)=C1C	-2.4	.	11	-20	-2	-0.6	i	.	21
CCOC(=O)c1c(-c2ccccc2)nc2ccc(Cl)cn12	.	-4%	.	.	-1	3.9	.	0.69	.
COc1ccc(-c2cc(C(=O)Nc3c(C)nn(Cc4ccccc4Cl)c3C)no2)cc1OC	.	21%	.	.	.	-0.6	.	0.69	.
CN1CCN(CCOc2ccc(-c3ccccc3)cc2)CC1	2.8	.	3	3.2	-31	3.0	i	0.65	4
Cc1noc(C)c1CN1C(=O)NC2(CCc3ccccc3C2)C1=O (stereo not drawn)	.	4%	.	.	0	-3.2	.	0.68	.

Not all compounds are listed (hit frequency here may not be typical).
